Six1-Eya2 blk = qHTS Assay for Inhibitors of the Six1/Eya2 Interaction. Homeobox protein SIX1 (Homo sapiens) + Protein phosphatase EYA2 (Homo sapiens), …. AlphaScreen GST-Six1/His-Eya2 binding, biochemical; stronger effect = lower value; control for the full effect not named in the record. activity change, % (concentration not given with the values). 360,000 compounds, 0.56% hits; in the data active = activity change below about -65%; inconclusive = about -30% to -65%; inactive = above about -30%; also: % is scaled to controls: 0 for no effect and ±100 for the full control effect
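Compounds are tested against tagged Six1 and Eya2 proteins bridged by glutathione donor and nickel acceptor beads; after a one-hour incubation at 37 °C without light, AlphaScreen emission is recorded.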
PINK1 expr mod = A Quantitative High throughput Screen to Identify Chemical Modulators of PINK1 Expression. PINK1 immunofluorescence, high-content cytometry, 24 h. Potency, µM (highest dose often 76.6 µM), without a hit: at the top dose activation (PINK1 increase), most hits filed as activators. 410,000 compounds, 0.2% hits. AID 624263, 2012; active = well fitted activation curve with a large enough effect; inconclusive = small, poorly fitted or top-dose-only effect; inactive = flat fitted curve, though single readings scatter; cell line not stated here;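 also: potency is read from the fitted curve at half-maximal effect; % of control where 0% means no effect; nearly all actives have a fitted effect of over 65% in size; a mitochondrial uncoupler was the plate control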
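A stable cell line was treated with compounds at 5 concentrations for 24 hours, with CCCP as control. PINK1 levels and mitochondrial localization were measured by immunofluorescence with mitochondrial, cell and nuclear markers after fixation, read by laser-scanning cytometry.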
TRPML1 agonist = qHTS for Agonists of the Human Mucolipin Transient Receptor Potential 1 (TRPML1); Mucolipin-1 (Homo sapiens), Q9GZU1; TRPML1-expressing cells, Ca2+ dye fluorescence, FDSS; host cell line not named in the record; reference of the full effect not given here; activation, % (test concentration not listed); 410,000 compounds, 0.12% hits; in the data active = activation above about 50%; inconclusive = about 30% to 50%; inactive = below about 30%; also: 0% is about no effect; the text of the record puts the active cut at 80%
Target sequence (Q9GZU1 whole entry, looked up): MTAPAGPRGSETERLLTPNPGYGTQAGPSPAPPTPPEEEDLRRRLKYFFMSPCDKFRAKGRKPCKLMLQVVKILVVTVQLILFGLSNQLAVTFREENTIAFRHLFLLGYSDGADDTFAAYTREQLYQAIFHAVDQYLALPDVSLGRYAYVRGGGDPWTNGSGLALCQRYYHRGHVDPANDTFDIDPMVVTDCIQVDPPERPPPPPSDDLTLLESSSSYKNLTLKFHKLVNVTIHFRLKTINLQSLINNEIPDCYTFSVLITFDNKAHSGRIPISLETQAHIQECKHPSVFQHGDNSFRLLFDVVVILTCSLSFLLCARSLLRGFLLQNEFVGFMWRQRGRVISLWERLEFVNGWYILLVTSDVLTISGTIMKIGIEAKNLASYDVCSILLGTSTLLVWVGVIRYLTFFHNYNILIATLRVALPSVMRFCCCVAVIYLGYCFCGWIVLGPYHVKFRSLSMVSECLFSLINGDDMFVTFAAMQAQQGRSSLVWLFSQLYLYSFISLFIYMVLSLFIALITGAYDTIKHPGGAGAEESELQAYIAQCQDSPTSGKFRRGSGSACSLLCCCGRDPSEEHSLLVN
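Kinetic FDSS Ca2+ read in Tet-induced TRPML1-DL cells (ABD Ca8 dye plus quencher, 45-90 min RT loading): baseline, then compound, then 110 s agonist window; EC80 agonist 54-4 at 4uM final added afterwards for a 110 s antagonist window.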
D2 ag = Beta-Arrestin HTS for Positive Allosteric Modulators of the Human D2 Dopamine Receptor: Agonists; 360,000 compounds, 0.084% hits; activation, % (no concentration beside the values); D(2) dopamine receptor (Homo sapiens), P14416; DiscoveRx PathHunter D2 beta-arrestin, luminescence, 90 min; 100% = 57 uM dopamine signal; in the data active = activation above about 40%; inconclusive = about 15% to 40%; inactive = below about 15%; also: compound concentration not given in the record; the text of the record calls up to 30% inactive
Target sequence (P14416 whole entry, looked up): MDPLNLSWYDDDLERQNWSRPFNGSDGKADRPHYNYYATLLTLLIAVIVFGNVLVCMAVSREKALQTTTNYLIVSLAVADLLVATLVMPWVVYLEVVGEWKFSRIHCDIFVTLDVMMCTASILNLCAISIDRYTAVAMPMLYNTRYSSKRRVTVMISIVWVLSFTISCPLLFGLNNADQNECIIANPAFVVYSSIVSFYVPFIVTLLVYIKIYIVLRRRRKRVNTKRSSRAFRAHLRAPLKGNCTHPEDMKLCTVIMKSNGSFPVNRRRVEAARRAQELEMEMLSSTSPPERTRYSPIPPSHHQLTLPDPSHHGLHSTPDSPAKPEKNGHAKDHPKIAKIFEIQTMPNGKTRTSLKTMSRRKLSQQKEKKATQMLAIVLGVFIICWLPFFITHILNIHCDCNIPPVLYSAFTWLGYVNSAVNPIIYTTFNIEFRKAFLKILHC
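DiscoveRx PathHunter D2 beta-arrestin cells (2,100/well) attached overnight, then compound-stimulated 90 min at 37 C in HBSS/10 mM HEPES/0.1% Tween-20 buffer; beta-galactosidase complementation read by luminescence after 1 h at ambient temperature. Dopamine 57 uM final (EC100) as control.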
CtBP-E1A inh = qHTS Assay for Inhibitors of the CtBP/E1A Interaction. AlphaScreen GST-E1A/His-CtBP binding, 1536-well; stronger effect = lower value; control for the full effect not named in the record. 340,000 compounds, 0.49% hits. activity change, % (no concentration beside the values). CtBP / adenovirus E1A interaction (AlphaScreen). AID 651724, 2012; in the data active means activity change below about -65%; inconclusive means about -30% to -65%; inactive means above about -30%; also: % is scaled to controls: 0 for no effect and ±100 for the full control effect
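GST-E1A and His-tagged CtBP (125 nM each as 5X stock) were preincubated with pin-transferred compound for 2 h at 37 °C in the dark, then glutathione donor and nickel acceptor beads were added for 1 h before AlphaScreen reading.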
D2 PAM = Beta-Arrestin HTS for Positive Allosteric Modulators of the Human D2 Dopamine Receptor: Potentiators; DiscoveRx D2 beta-arrestin cells, luminescence, 90 min; 100% = 57 uM dopamine signal; potentiation, % (concentration not given with the values); 360,000 compounds, 0.23% hits; AID 624464, 2012; active = potentiation of 50% or more; inconclusive = 30% to 50%; inactive = 30% or less;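 also: tested on top of an EC20 dose of dopamine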
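PathHunter beta-arrestin assay in DiscoveRx D2 cells. Compounds were added with an EC20 of dopamine (50 nM final) for 90 min at 37 deg C. Luminescence was read 1 h after detection reagent, with 57 uM dopamine as the EC100 control.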
Numbers without * were called inactive; u = inconclusive; x = no result given; & = joins results of further samples; [ ] = dose if it differs, or a comment. Rows were taken by chance, and some 1.3% of all compounds hit somewhere here.

smiles,TRPML1 agonist,PINK1 expr mod,Six1-Eya2 blk,D2 ag,D2 PAM,CtBP-E1A inh
c1ccc(-c2ccc(-c3[nH]ncc3CN3CCC(N4CCSCC4)CC3)cc2)cc1,0.3,1.2%,-4,-0.8,-16,x
Cc1ccccc1CN(C)C[C@@H]1OCc2cnnn2CCCC(=O)N([C@H](C)CO)C[C@H]1C,x,-0.7%,2,-2.0,x,3
COc1ccc2ccccc2c1/C=N/NC(=O)c1ccccc1F,0.0,2.1%,-26,-6.9,-13,-4
C(=N\N(c1ccccc1)c1ccccc1)/c1ccccn1,3.2,7.8%,-4,-4.7,-3,-13
CCCN1CCN(C(=O)Cn2c(=O)oc3cc(S(=O)(=O)NCc4ccccc4)ccc32)CC1,-0.1,0.8%,0,-5.0,-2,10
CC(C)CC(c1nc2ccccc2[nH]1)n1c(-c2ccccc2Br)nc2ccccc21 (configuration not stated),0.3,2.0%,0,-3.4,-4,2
Cc1ccccc1C(=O)NCCCNC(=O)c1ccccn1,0.2,2.3%,14,-1.2,0,2
O=C(NC1C(=O)NNC1c1ccccc1)c1ccc(F)cc1 (configuration not stated),-0.5,-2.3%,3,-7.4,-13,-2
OC(c1ccc(Cl)c(Cl)c1)c1ncc(-c2ccccc2C(F)(F)F)[nH]1 (configuration not stated),-1.1,u,-10,2.3,-6,-9
O=C(CSc1nnc(SCc2ccc(Cl)cc2)s1)c1ccc2c(c1)OCO2,1.8,6.6%,23,2.7,-15,4
CN(Cc1nc2ccccc2c(=O)[nH]1)C(=O)c1ccc(S(=O)(=O)N2CCCC2)cc1,0.6,-0.3%,-3,-3.6,1,x
CC(Sc1nncn1C)C(=O)NCCC1=CCCCC1 (configuration not stated),-0.1,0.1%,-2,-2.9,-8,3
CCOC(=O)C1=CN(Cc2ccco2)S(=O)(=O)NC1c1ccc(Br)cc1F (configuration not stated),-0.5,1.9%,-1,-2.8,-1,-15
O=C1CCC(C(=O)N2CCc3c(Cl)cccc3C2)CN1CCCN1CCOCC1 (configuration not stated),1.2,2.5%,0,-2.7,-11,11
Cc1cc(OCC(=O)OCC(=O)NCc2ccco2)ccc1Cl,1.9,3.9%,-4,-3.0,-16,-7
COc1ccc(/C=N/N2CCN(C3c4ccccc4-c4ccccc43)CC2)cc1O,0.4,7.9%,-28,0.5,-13,-4
CCOC(=O)C1CCCN(C(=O)c2cc(C)n(C(C)(C)C)n2)CC1 (configuration not stated),0.4,-0.9%,8,-2.9,-7,1
CCOc1cc(C2CC(=O)c3c(ccc4ccccc34)N2)ccc1O (configuration not stated),-0.8,5.6%,-21,-3.7,-10,-15
CCCN1C(=O)C(O)(c2c(C)[nH]c3ccccc23)c2ccccc21 (configuration not stated),-0.6,3.4%,4,-6.8,-20,x
O=C(CN1c2cccc3cccc(c23)S1(=O)=O)NCc1ccc(Cl)cc1,6.7,0.3%,8,4.6,2,20
COc1ccccc1CNC(=O)COC(=O)c1cnc(C)cn1,0.1,-1.5%,3,-3.2,-13,-19
O=C(CSc1ccc2nnc(CCNC(=O)c3ccccc3)n2n1)Nc1ccccc1,0.3,2.0%,-1,1.5,-2,-24
Cc1sc(N/N=C/c2cccs2)nc1-c1ccccc1,0.7,2.0%,-16,u,66*,-11
NC(=O)c1nsc(C(=O)N(Cc2ccccc2F)C(C(=O)NCC2CCCO2)c2ccc(F)cc2)c1N (configuration not stated),-0.6,0.0%,2,1.7,-6,2
CNc1nc(C)cc(C)c1S(=O)(=O)c1ccc(C)cc1,2.7,7.5%,22,0.2,-5,20

Four of the compounds above, field by field:
> CN(Cc1nc2ccccc2c(=O)[nH]1)C(=O)c1ccc(S(=O)(=O)N2CCCC2)cc1
- TRPML1 agonist: 0.6
- PINK1 expr mod: -0.3%
- Six1-Eya2 blk: -3
- D2 ag: -3.6
- D2 PAM: 1
- CtBP-E1A inh: x

> CC(Sc1nncn1C)C(=O)NCCC1=CCCCC1 (configuration not stated)
- TRPML1 agonist: -0.1
- PINK1 expr mod: 0.1%
- Six1-Eya2 blk: -2
- D2 ag: -2.9
- D2 PAM: -8
- CtBP-E1A inh: 3

> CCOC(=O)C1=CN(Cc2ccco2)S(=O)(=O)NC1c1ccc(Br)cc1F (configuration not stated)
- TRPML1 agonist: -0.5
- PINK1 expr mod: 1.9%
- Six1-Eya2 blk: -1
- D2 ag: -2.8
- D2 PAM: -1
- CtBP-E1A inh: -15

> O=C1CCC(C(=O)N2CCc3c(Cl)cccc3C2)CN1CCCN1CCOCC1 (configuration not stated)
- TRPML1 agonist: 1.2
- PINK1 expr mod: 2.5%
- Six1-Eya2 blk: 0
- D2 ag: -2.7
- D2 PAM: -11
- CtBP-E1A inh: 11

(cont.)
smiles,TRPML1 agonist,PINK1 expr mod,Six1-Eya2 blk,D2 ag,D2 PAM,CtBP-E1A inh
COc1ccc(-c2csc3ncnc(N4CCN(CCO)CC4)c23)cc1,-0.3,-2.6%,-4,3.0,-5,3
Cc1noc(C)c1CN(C(=S)NC1CC1)c1ccccc1,0.2,2.6%,2,1.8,6,14
COc1ccc(-c2nc(CN3CCN(Cc4ccccc4)CC3)c(C)o2)cc1,-0.1,1.3%,-7,0.0,-4,-13
O=C(COc1ccc(Br)cc1)Nc1ccccc1C(=O)NC1CC1,0.2,6.1%,9,-3.8,-1,0
Cc1cc(NC(=O)CSc2nc(C3CC3)nc3sc(C)c(C)c23)no1,-0.7,u,0,-0.9,1,6
CCCOc1ccc(C(=O)NC(C)C(=O)O)cc1 (configuration not stated),1.0,2.7%[38.3 µM],8,-0.9,-12,3
Cc1cccc(C)c1Nc1nnc(SC(C)C(=O)Nc2c(C)n(C)n(-c3ccccc3)c2=O)s1 (configuration not stated),-0.5,-0.2%,-7,-4.1,-8,-5
COc1ccccc1NC(=O)C(C)OC(=O)CCCOc1ccccc1 (configuration not stated),2.0,5.3%,27,-2.8,18,-1
Cc1ccc(C)c(-n2c(SCC(=O)Nc3nnc(C)s3)nnc2-c2ccoc2C)c1,-0.4,15%,2,-4.3,1,7
COc1ccccc1-c1cc(NC=O)c2ncc(-c3ccc(F)cc3)n2c1,0.4,0.6%,-6,-6.2,-12,-6
COc1ccc2[nH]c(=O)c(CN(Cc3ccccc3OC)Cc3nnnn3CC3CCCO3)cc2c1 (configuration not stated),3.9,-1.5%[38.3 µM],0,0.3,-2,5
COc1ccc(OCC(=O)Nc2ccc3c(c2)nc(CCN2CCN(c4ccccn4)CC2)n3C)cc1,-1.2,4.8%,-22,6.8,-18,-7
Cc1ccc(NC(=O)c2sc(Cl)nc2-c2ccccc2)cc1C,-0.3,4.0%,16,-1.4,20,7
CCOc1ccc(OCC)c(NC(=O)CSc2nc3cccnc3n2C)c1,3.1,-0.5%,-11,4.2,-7,-1
COc1ccc(-c2cc3ccc(OCC(=O)NCC4CCC(C(=O)O)CC4)cc3oc2=O)cc1 (configuration not stated),x,2.6%,1,-0.8,-12,5
COc1ccc(S(=O)(=O)Cc2ccc(C(=O)N3CCN(Cc4ccccc4)CC3)o2)cc1,-0.1,-0.1%,7,1.4,-3,-1
CC1(C(=O)NS(=O)(=O)c2cccs2)CCN1C(=O)CC1CC1 (configuration not stated),0.3,0.4%,9,-2.5,-12,4
COc1ccc2c(CC(=O)OCC(=O)NC(=O)c3cccn3C)coc2c1,1.1,1.7%,20,0.2,-6,18
CC1(C)CC(=O)C2=C(C1)Nc1ccccc1NC2c1nc2ccccc2[nH]1 (configuration not stated),-0.9,0.9%,-1,-6.7,-3,4
O=Cc1ccc(C(=O)OCC(=O)Nc2ccc(F)cc2F)cc1,-0.2,3.2%,-2,-0.6,7,2
CC1CCN(S(=O)(=O)c2ccc3c(c2)N(CC(=O)NCCCN2CCCC(C)C2)C(=O)CS3)CC1 (configuration not stated),-0.4&-0.2,-2.3%&-0.1%,-1,-3.5,-33,-1
CC(=O)Oc1ccc2c(C)c(CC(=O)N3CCN(C(=O)C4COc5ccccc5O4)CC3)c(=O)oc2c1C (configuration not stated),2.3,4.4%,0,-12,-13,-7
O=C(Nc1ccc(OC(F)F)cc1)c1ccccn1,1.0,1.4%,14,-2.2,-5,-4
Cc1ccc2nc(-c3ccc(O)c(O)c3)cn2c1,0.9,u,-9,4.7,5,-8
COc1ccc(NC(=O)Nc2ccc3[nH]ccc3c2)cc1,-0.6,3.0%,-9,-3.4,2,-8

Next part:
smiles,TRPML1 agonist,PINK1 expr mod,Six1-Eya2 blk,D2 ag,D2 PAM,CtBP-E1A inh
COC(=O)[C@]12CCCCC=C1N(Cc1ccccc1)C(=O)[C@H](CC(=O)NCc1cccc3ccccc13)C2,-0.2,-1.4%,0,x,x,-16
CCCc1cc(=O)[nH]c(SCC(=O)NC(=O)c2ccccc2)n1,1.6,-2.8%[38.3 µM],3,-3.2,-11,2
CC(C)N1CC(COc2ccccc2Cl)OC1=O (configuration not stated),0.3,8.6%,1,2.4,-12,2
CN(C(=S)NC1=CCS(=O)(=O)C1)C1CCCCC1,0.0,-2.7%,0,-4.8,-9,-3
COc1cc(NC(=O)c2ccc(Cl)cc2)c(OC)cc1NC(=O)CN1CCOCC1,1.5,-1.0%,-1,-1.2,12,-6
CCN(CC)c1ccc(/C=C/C(=O)c2ccc(Br)cc2)cc1,88*,18%,136,-1.6,15,53
O=C(Nc1ccccc1F)c1ccc(Cn2cc(Br)cn2)cc1,-0.1,0.2%,1,-2.4,-7,x
Cc1nc(N2CCCCC2)c2c(C)c(C(=O)Nc3cccc(C(F)(F)F)c3)sc2n1,0.8,21%,12,-4.0,-2,x
CC1Cc2ccccc2N1C(=O)CSc1nnc(-c2ccccc2)c(-c2ccccc2)n1 (configuration not stated),1.8,u,-12,-1.9,-18,-26
O=[N+]([O-])c1ccccc1Nc1ccccc1[N+](=O)[O-],3.7,6.9%,-25,-5.4,-17,2

Assay outcomes deposited in PubChem by National Center for Advancing Translational Sciences (NCATS).
